# Vif A3G: inhibitors of Vif binding to APOBEC3G peptide, primary screen, biochemical, TR-FRET, GST-Vif 1-94, biotin-A3G peptide, dose response retest (AID 1117319) | TR-FRET GST-Vif / biotin-A3G peptide binding; higher % means a stronger effect; test concentration not given here; strong numbers were not always called active | one-dose inhibition, %; IC50 in µM for titrated hits | 260,000 tested, 0.57% active;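 active = above the screen mean plus three standard deviations and confirmed in dose response; inconclusive = results disagree or hit not tested in dose response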;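 note: Vif residues 1-94 fused to GST binding biotinylated APOBEC3G peptide 110-148; 0% = full assay without inhibitor and 100% = GST in place of GST-Vif; retest series ran down from 100 µM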
# T cruzi inh: T. cruzi replication inhibition; T. cruzi beta-gal in NIH3T3, luminescence, 90 h; inhibition, % (no concentration beside the values); 300,000 tested, 1.4% active; AID 1885;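 active = mean inhibition across valid replicates above about 55%, limit read from the data; inconclusive = mean below that limit but half or more replicates reach it; inactive = mean below it, under half of replicates reach it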;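 note: signal also drops with host cell toxicity which is not excluded here; 0% = plate median of DMSO wells and 100% = zero luminescence signal; higher percent means less beta-gal luminescence so fewer parasites; stock transfer was 50 nL into about 50 µL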
# Calb FLC: affects C. albicans growth with fluconazole. AID 1979. growth inhibition, % (test concentration not listed). C. albicans CaCi-2 (fluconazole-resistant clinical isolate) + fluconazole, Alamar Blue growth, 48 h. 300,000 tested, 0.57% active;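 active = most replicates above 75%; inconclusive = exactly half above 75%; inactive = most below 75%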;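 note: all wells also contain fluconazole at 8 µg/ml as a sub-toxic cotreatment; 0% = median of DMSO wells and 100% = median of geldanamycin control wells; wells of about 8 µL received 7.5 nL stock; the first replicate is given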
# RanGTP-Impb inh: disruptors of Ran-importin-beta complex formation – biochemical, FRET, CFP-Ran, YFP-importin-beta, homogeneous, primary screen | 300,000 tested, 1.1% active | cell-free CFP-Ran/YFP-importin-beta FRET ratio | inhibition, % (concentration not given with the values) | AID 2216;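 active = most replicates above 15%; inconclusive = exactly half above 15%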;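 note: 0% = DMSO wells and 100% = Ran loaded with GDP instead of GTP; wells of about 40 µL received 100 nL stock; the first replicate is given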
# Bfl-1 A1 inh: inhibitors of the anti-apoptotic protein A1, read as caspase activation; caspase activation, % (concentration not given with the values); MEF A1-2A-BIM cells, Caspase-Glo 3/7 luminescence, 3 h; percent of clofoctol response, vehicle zero; 330,000 tested, 0.066% active; AID 2462;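 active = over half of replicate activation scores above 10%, or exactly half above 10 with the replicate mean above 10; inconclusive = replicate mean below 10 yet half the replicates above 10; inactive = over half of replicates below 10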;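 note: wells of about 30 µL received 50 nL stock; many hits fall short of the cut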
# MLL AF4-AF9 inh: blocks AF4 peptide binding to human AF9; P42568; AlphaScreen, biotin-AF4 peptide binding to FLAG-AF9; inhibition, % at 10 µM; 350,000 tested, 0.47% active; AID 651704;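 active = every replicate reaching a set inhibition limit, whatever the replicate mean, cut at about 25% in these data; inconclusive = mean inhibition reaches that limit but some replicates miss it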;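 note: 0% = plate neutral control median and 100% = total signal loss; the record names both 10 and 1 µM as test concentration; the first replicate is given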
# Beta cell apopt: blocks beta cell apoptosis; AID 435005; protection from apoptosis, % (test concentration not listed); 300,000 tested, 0.8% active; INS-1E cytokine-induced death, ATP luminescence, 48 h; percent of positive-control rescue, neutral wells zero;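 active = all replicates at 75% or more, or half of them and the mean; inconclusive = half reach 75% but not the mean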;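 note: 0% = cytokine-treated negative control wells and 100% = positive control rescue; higher means more ATP so stronger rescue from cytokine killing; wells of about 40 µL received 100 nL stock; the first replicate is given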
# LANA-H2B inh: blocks KSHV LANA binding to histone H2A/H2B; Q9QR71; cell-free LANA-H2A/H2B peptide, fluorescence polarization; inhibition, % (test concentration not listed); 320,000 tested, 0.6% active; in the data active = inhibition mostly above about 10%, no sharp cut-off; inactive = mostly below about 6.7%;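 note: stock transfer was 7.5 nL into about 10 µL; 0% = median of vehicle wells and 100% = median of positive control wells; one replicate is shown; the record names a cut of 25% in any replicate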
# Target sequence (Q9QR71 whole entry, looked up): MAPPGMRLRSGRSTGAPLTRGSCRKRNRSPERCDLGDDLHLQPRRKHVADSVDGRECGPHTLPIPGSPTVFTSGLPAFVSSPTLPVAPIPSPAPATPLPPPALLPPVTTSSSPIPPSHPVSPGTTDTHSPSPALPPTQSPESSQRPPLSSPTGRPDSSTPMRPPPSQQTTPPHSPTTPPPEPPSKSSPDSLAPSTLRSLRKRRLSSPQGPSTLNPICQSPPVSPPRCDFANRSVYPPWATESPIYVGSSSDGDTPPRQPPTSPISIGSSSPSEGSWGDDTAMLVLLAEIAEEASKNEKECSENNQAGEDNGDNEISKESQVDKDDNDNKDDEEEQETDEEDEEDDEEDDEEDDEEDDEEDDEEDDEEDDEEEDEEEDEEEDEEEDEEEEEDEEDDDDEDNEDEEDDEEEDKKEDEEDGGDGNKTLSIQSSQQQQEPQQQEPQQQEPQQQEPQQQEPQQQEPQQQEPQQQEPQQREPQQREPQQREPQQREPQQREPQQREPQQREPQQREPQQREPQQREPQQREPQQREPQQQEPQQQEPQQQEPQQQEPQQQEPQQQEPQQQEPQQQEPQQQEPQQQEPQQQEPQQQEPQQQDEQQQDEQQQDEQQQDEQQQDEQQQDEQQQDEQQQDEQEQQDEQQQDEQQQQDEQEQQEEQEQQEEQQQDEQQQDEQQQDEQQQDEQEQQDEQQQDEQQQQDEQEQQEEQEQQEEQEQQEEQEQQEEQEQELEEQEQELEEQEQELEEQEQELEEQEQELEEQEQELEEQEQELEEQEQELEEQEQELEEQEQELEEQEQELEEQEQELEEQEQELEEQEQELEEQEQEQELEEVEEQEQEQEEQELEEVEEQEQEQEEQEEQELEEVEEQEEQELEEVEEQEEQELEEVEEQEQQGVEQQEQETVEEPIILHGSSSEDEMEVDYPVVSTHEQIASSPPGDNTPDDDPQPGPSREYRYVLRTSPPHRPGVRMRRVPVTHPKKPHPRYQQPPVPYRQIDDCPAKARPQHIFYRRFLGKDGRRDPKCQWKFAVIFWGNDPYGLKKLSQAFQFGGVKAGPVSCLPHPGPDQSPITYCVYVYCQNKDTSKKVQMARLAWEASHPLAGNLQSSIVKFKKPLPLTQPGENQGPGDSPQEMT
# Active calls of the source: *; ? = inconclusive; . = not tested or not shown.
Compound	Bfl-1 A1 inh	Beta cell apopt	T cruzi inh	LANA-H2B inh	Calb FLC	MLL AF4-AF9 inh	RanGTP-Impb inh	Vif A3G
O=C(c1cccc2ccccc12)C1CCCN(C(=O)CCN2CCCO2)C1 (stereo not drawn)	1.0	-8	5	-8.6	0	-0.1	0.5	-1%
C=CCNc1nc(-c2c(C)nc3sccn23)cs1	-0.4	4	13	0.8	-1	.	2.1	11%
Cc1ccc(CNC(=O)c2oc3ccc(S(=O)(=O)N4CCOCC4)cc3c2C)cc1	0.0	-7	12	-1.1	28	.	1.8	?
C[C@@H]1CC=C[C@H]2[C@H]1C(=O)N(Cc1ccccc1)[C@H]2c1ccoc1	1.1	-12	-3	-4.0	-6	1.9	0.4	16%
O=C(c1cc2ccccc2oc1=O)N(Cc1ccco1)C1CCS(=O)(=O)C1 (stereo not drawn)	0.6	-6	9	-0.4	-28	.	5.2	0%
Cc1cccc(C)c1NC(=O)C1(NC(=O)C2CCCN2C(=O)OC(C)(C)C)CCCCC1 (stereo not drawn)	0.4	3	10	2.7	0	.	3.5	4%
Cn1c(CO)cnc1S(=O)(=O)Cc1ccc(Cl)cc1	0.7	-15	-2	12	1	0.3	?	.
O=C(CSc1ccc(Cl)cc1)Nc1ccc(C2SCCS2)cc1	0.2	-5	10	1.4	-8	4.2	-2.2	-6%
COc1ccccc1NC(=S)NC(=O)CCc1ccccc1	-0.1	.	-12	-2.6	-36	-0.6	?	-7%
O=C(O)c1cc(NCc2c(F)cccc2Cl)ccc1N1CCOCC1	-1.1	2	-7	1.2	28	.	-4.1	30%
COCCNC(=O)c1onc(CS(=O)(=O)c2cc(C)cc(C)c2)c1C(=O)NCCOC	-1.2	-9	-9	1.9	-6	.	-0.1	.
COc1ccc(NS(=O)(=O)c2cn(C)c(=O)n(C)c2=O)cc1	0.6	-9	-3	4.4	-1	-18	0.2	2%
O=C(NCCNC(=O)c1cc(OCC(F)(F)F)ccc1OCC(F)(F)F)Nc1ccc(Cl)cc1	0.3	13	31	3.4	-11	.	0.8	-8%
CCC(C)N(C)Cc1cccc(C2(O)CCN(S(=O)(=O)c3ccc(F)c(C)c3)CC2)c1 (stereo not drawn)	0.6	-1	18	.	-26	.	0.8	.
Cc1cc(NC(=O)c2cnn3c(C(F)F)cc(-c4ccccc4)nc23)no1	-0.4	20	23	-2.1	1	.	-1.8	6%

# Remaining list, next part
Compound	Bfl-1 A1 inh	Beta cell apopt	T cruzi inh	LANA-H2B inh	Calb FLC	MLL AF4-AF9 inh	RanGTP-Impb inh	Vif A3G
Cc1cccc(NC(=O)C2C3C=CC(O3)C2C(=O)O)c1 (stereo not drawn)	0.7	-4	-8	-1.0	-7	.	-2.4	.
COc1ccc(Cn2c(CCC(=O)Nc3ccccc3OC)nc3cccnc32)cc1	-1.0	3	-1	3.6	6	-3.2	-2.5	.
Cc1ccc(N2CC(O)(c3cccs3)[N+]3=C2CCCC3)cc1 (stereo not drawn)	-0.2	4	7	-2.7	-18	0.1	-0.5	1%
Cc1ccc(CCNC(=O)C2CCCN(S(C)(=O)=O)C2)cc1 (stereo not drawn)	0.1	0	-5	11	0	-0.9	-2.7	1%
CC(C)c1ccc(N)c(S(=O)(=O)O)c1	-0.5	-2	1	-1.8	-2	-6.1	1.0	4%
CCOC(=O)c1oc2ccccc2c1CN1CC(C)OC(C)C1 (stereo not drawn)	2.6	-7	?	-6.7	-11	0.0	3.6	-4%
COc1ccc(C(=O)NCCSc2ccccn2)cc1	-1.9	-4	-32	.	-4	.	2.7	17%
Cc1ccc(C(=O)N2CCCCCC2)cc1S(=O)(=O)N1CCOCC1	0.9	-1	4	0.1	4	-2.3	5.7	-3%
COCCCN1C(=O)N(c2ccc(F)cc2)C(=O)C1CC(=O)Nc1ccc(OC)cc1 (stereo not drawn)	0.1	.	-12	3.4	-8	2.4	-6.9	39%
Cc1c(C(=O)O)oc2ccc(S(=O)(=O)NCc3ccccc3)cc12	0.8	-2	-14	-0.2	?	.	-2.7	?
CCCCNC(=O)CCC(=O)Nc1ccc2nc(N3CCOCC3)cc(C)c2c1	1.5	5	-1	2.3	7	.	-3.0	-4%
O=C(CCc1nnc(CCCCc2ccccc2)o1)NCCN1CCOC1=O	1.6	-3	0	1.0	-7	0.6	3.6	-9%
O=C(NC1CCCCC1)c1cc(-c2ccco2)on1	-0.6	-2	-1	2.4	-6	3.2	4.4	3%
Cc1nc2sc(C(c3ccco3)N3CCC(C)CC3)c(O)n2n1 (stereo not drawn)	0.1	-5	-10	-1.0	-1	-8.5	-1.6	3%
CNC(=O)CSc1nnc(-c2ccco2)n1-c1cc(C)ccc1C	0.5	1	-2	-6.6	2	-3.9	1.6	.
N/C(CCCN1CCCCC1)=N/O	-0.8	3	-4	0.7	-6	.	-0.2	3%
CC(C)NC(=O)COC(=O)c1cc(=O)[nH]c2ccccc12	0.2	-10	-11	-1.9	-42	-12	-4.4	-3%
N#Cc1ccc(-c2cn(-c3ccccc3)c3[n+]2CCCS3)cc1	-0.1	-3	5	-2.0	-39	-0.6	1.6	-3%

# Some of the entries above, reformatted.
# Under each structure: Bfl-1 A1 inh	Beta cell apopt	T cruzi inh	LANA-H2B inh	Calb FLC	MLL AF4-AF9 inh	RanGTP-Impb inh	Vif A3G
Cc1ccc(CCNC(=O)C2CCCN(S(C)(=O)=O)C2)cc1 (stereo not drawn)
→ 0.1	0	-5	11	0	-0.9	-2.7	1%
CC(C)c1ccc(N)c(S(=O)(=O)O)c1
→ -0.5	-2	1	-1.8	-2	-6.1	1.0	4%
CCOC(=O)c1oc2ccccc2c1CN1CC(C)OC(C)C1 (stereo not drawn)
→ 2.6	-7	?	-6.7	-11	0.0	3.6	-4%
COc1ccc(C(=O)NCCSc2ccccn2)cc1
→ -1.9	-4	-32	.	-4	.	2.7	17%
Cc1ccc(C(=O)N2CCCCCC2)cc1S(=O)(=O)N1CCOCC1
→ 0.9	-1	4	0.1	4	-2.3	5.7	-3%
COCCCN1C(=O)N(c2ccc(F)cc2)C(=O)C1CC(=O)Nc1ccc(OC)cc1 (stereo not drawn)
→ 0.1	.	-12	3.4	-8	2.4	-6.9	39%
Cc1c(C(=O)O)oc2ccc(S(=O)(=O)NCc3ccccc3)cc12
→ 0.8	-2	-14	-0.2	?	.	-2.7	?
CCCCNC(=O)CCC(=O)Nc1ccc2nc(N3CCOCC3)cc(C)c2c1
→ 1.5	5	-1	2.3	7	.	-3.0	-4%
O=C(CCc1nnc(CCCCc2ccccc2)o1)NCCN1CCOC1=O
→ 1.6	-3	0	1.0	-7	0.6	3.6	-9%
O=C(NC1CCCCC1)c1cc(-c2ccco2)on1
→ -0.6	-2	-1	2.4	-6	3.2	4.4	3%
Cc1nc2sc(C(c3ccco3)N3CCC(C)CC3)c(O)n2n1 (stereo not drawn)
→ 0.1	-5	-10	-1.0	-1	-8.5	-1.6	3%
CNC(=O)CSc1nnc(-c2ccco2)n1-c1cc(C)ccc1C
→ 0.5	1	-2	-6.6	2	-3.9	1.6	.
N/C(CCCN1CCCCC1)=N/O
→ -0.8	3	-4	0.7	-6	.	-0.2	3%
CC(C)NC(=O)COC(=O)c1cc(=O)[nH]c2ccccc12
→ 0.2	-10	-11	-1.9	-42	-12	-4.4	-3%

# An excerpt of these results, with values under each structure:
# The line under a structure holds: Bfl-1 A1 inh, Beta cell apopt, T cruzi inh, LANA-H2B inh, Calb FLC, MLL AF4-AF9 inh, RanGTP-Impb inh, Vif A3G
- Cn1c(CO)cnc1S(=O)(=O)Cc1ccc(Cl)cc1
 : 0.7, -15, -2, 12, 1, 0.3, ?, .
- Cc1ccc(C(=O)N2CCCCCC2)cc1S(=O)(=O)N1CCOCC1
 : 0.9, -1, 4, 0.1, 4, -2.3, 5.7, -3%
